StopGo reporter: lowers the luciferase signal of an FMDV 2A StopGo reporter | human cells with a luciferase reporter of 2A StopGo recoding; control for the full effect not named in the record | Potency, µM (series often up to 57.9 µM), inactives show at the top dose signal change, negative = less light | 410,000 compounds, 1.2% hits | AID 1159524; active = well fitted falling curve with a large enough effect; inconclusive = small, poorly fitted or top-dose-only effect; inactive = no such curve, though single readings can be large or run the other way; tested in HEK293T cells; also: % is scaled to controls: 0 for no effect and ±100 for the full control effect; nearly all actives have a fitted effect of over 45% in size; luciferase light after 4 h
SARS PLP yeast: inhibitors of SARS-CoV papain-like protease in yeast | Potency, µM (doses to about 32.9 µM), for the others: top-dose activity, positive = growth rescue | 330,000 compounds, 0.19% hits | S. cerevisiae expressing SARS-CoV PLpro, growth rescue; control for the full effect not named in the record; also: 0% is about no effect; nearly all actives have a fitted effect of over 55% in size; growth read by luminescence after 48 h
MARV entry inh: Marburg virus entry inhibition. Marburg virus pseudotyped entry inhibition, cell reporter; control for the full effect not named in the record; about a third of the inactives were read at about 46 µM. Potency, µM (series often up to 37.8 µM), for inactives: at the highest dose activity change, negative = inhibition, hits mostly inhibitors. 300,000 compounds, 1.8% hits; active = well fitted inhibition curve with a large enough effect; inconclusive = small, poorly fitted or top-dose-only effect, or effect the other way; inactive = flat fitted curve, though single readings scatter; tested in HEK293 cells; about a fifth of its hits are not listed in these tables; also: % is scaled to controls: 0 for no effect and ±100 for the full control effect; luciferase read-out
NS1 function inh: influenza NS1 inhibition | Potency, µM (titrated, usually from 46.1 µM), for inactives: top-dose activity, positive = more growth | S. cerevisiae slowed by influenza A NS1, growth recovery by OD600 | 270,000 compounds, 0.4% hits | AID 2326; also: actives are rising curves; nearly all actives have a fitted effect of over 50% in size
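Compounds were scored for reversing the slow growth caused by influenza A NS1 in S. cerevisiae, measured by optical density at 600 nm. Assay medium contained 2% galactose at pH 6.0; NS1-free yeast of the same strain were the positive control.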
Cruzain inh noDet: cruzain (T. cruzi) inhibition without detergent | P25779 | purified cruzain, Z-FR-AMC fluorescence, no detergent | Potency, µM, for inactives: max response, negative = inhibition, actives largely listed as inhibitors | 200,000 compounds, 2.3% hits | AID 1476; active = well fitted curve in the direction sought with a large enough effect; inconclusive = small, poorly fitted or top-dose-only effect, or another doubt; inactive = no such curve, though single readings can be large; an effect the other way counts as inactive or inconclusive;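 also: plate controls were enzyme without inhibitor for no effect and buffer without enzyme for full effect; nearly all actives have a fitted effect of over 40% in size; top concentration of the series not given in the record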
Target sequence (P25779 123-467 limits assumed): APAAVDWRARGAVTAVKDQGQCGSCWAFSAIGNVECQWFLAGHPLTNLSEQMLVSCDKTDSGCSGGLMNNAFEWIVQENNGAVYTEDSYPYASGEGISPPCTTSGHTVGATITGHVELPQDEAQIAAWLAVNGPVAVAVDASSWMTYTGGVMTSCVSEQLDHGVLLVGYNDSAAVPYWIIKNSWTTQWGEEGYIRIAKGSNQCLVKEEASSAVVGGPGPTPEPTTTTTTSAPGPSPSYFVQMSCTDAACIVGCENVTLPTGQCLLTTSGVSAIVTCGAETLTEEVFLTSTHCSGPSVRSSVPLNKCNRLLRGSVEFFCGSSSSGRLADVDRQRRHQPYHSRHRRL
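Purified cruzain at 1.5 nM, pre-incubated 15 min with compound at room temperature in 100 mM sodium acetate pH 5.5, 5 mM DTT, 0.00005% Triton X-100. Reaction started with 2 uM Z-FR-AMC; AMC fluorescence increase over 60 s gives rate.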
Cruzain Triton: blocks cruzain activity in presence of Triton detergent; P25779; purified cruzain, Z-FR-AMC fluorescence, 0.01% Triton; Potency, µM, for inactives: max response, negative = inhibition, usual class: inhibitors; 200,000 compounds, 0.43% hits; AID 1478; active = well fitted curve in the direction sought with a large enough effect; inconclusive = small, poorly fitted or top-dose-only effect, or another doubt; inactive = no such curve, though single readings can be large; an effect the other way counts as inactive or inconclusive;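 also: plate controls were neutral wells for no effect and buffer without enzyme for full effect; nearly all actives have a fitted effect of over 40% in size; top concentration of the series not given in the record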
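Cruzain (1.5 nM) preincubated 15 min at RT with compound in 100 mM sodium acetate pH 5.5, 5 mM DTT, 0.01% Triton X-100. Reaction started with 2 uM Z-FR-AMC; AMC fluorescence (ex 360/em 450 nm) change over 60 s gave rate.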
Lassa entry inh: inhibitors of Lassa virus binding or cell entry; AID 540256; Lassa virus pseudotype entry inhibition, cell reporter; control for the full effect not named in the record; 300,000 compounds, 1.2% hits; Potency, µM (titrated, usually from 37.9 µM), for the others: at the highest dose activity change, negative = inhibition, hits mostly inhibitors; active means well fitted inhibition curve with a large enough effect; inconclusive means small, poorly fitted or top-dose-only effect, or effect the other way; inactive means flat fitted curve, though single readings scatter; tested in HEK293 cells; also: % is scaled to controls: 0 for no effect and ±100 for the full control effect; nearly all actives have a fitted effect of over 50% in size; luciferase read-out
RE007 growth inh: less growth of the S. pombe RE007 Vpr strain | 360,000 compounds, 0.21% hits | S. pombe RE007 Vpr strain, BacTiter-Glo ATP luminescence, 24 h; control for the full effect not named in the record | Potency, µM (titrated, usually from 92.2 µM), for the others: at the highest dose activity change, negative = less growth; active = well fitted falling curve with a large enough effect; inconclusive = small, poorly fitted or top-dose-only effect; inactive = no such curve, though single readings can be large or run the other way;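 also: % is scaled to controls: 0 for no effect and ±100 for the full control effect; nearly all actives have a fitted effect of over 50% in size; the assay follows cell death caused by Vpr and the record does not say whether a fall means rescue or toxicity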
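Fission yeast strain RE007, carrying one chromosomally integrated HIV-1 vpr copy, was seeded at OD 0.01 in PMG+AL medium with 23 nL pinned compound. After 24 h at 30 °C and 99% humidity, viability was read by BacTiter-Glo luminescence.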
* hit, by the source's call; & = joins results of further samples; [ ] = another dose, or the depositor's remark. Unless noted, calls follow the shape of the dose curve; as a rule, active means well fitted rising curve with a large enough effect; inconclusive means small, poorly fitted or top-dose-only effect; inactive means no such curve, though single readings can be large or run the other way. Potency is read from the fitted curve at half-maximal effect. Compounds were not picked by outcome; 4.7% or so of the library scored in one or more.

`CN(CC(=O)Nc1ccc(Cl)cc1)C(=O)c1ccc(NS(=O)(=O)c2ccc3[nH]c(=O)[nH]c3c2)cc1` gave StopGo reporter -6.5%, SARS PLP yeast 0.4%, MARV entry inh 16.7%, Lassa entry inh 10.5% and RE007 growth inh 11.0%.
Screening Cc1ccc(-c2nc3cc(NC(=O)c4cc5ccccc5o4)ccc3o2)cc1Cl returned StopGo reporter -4.6%, MARV entry inh 4.2%[46.1 µM], Cruzain inh noDet 12.3%, Cruzain Triton 1.8% and Lassa entry inh -3.2%[46.1 µM].
For CCCOC(=O)c1ccc(Cl)c(NC(=O)c2ccc(-c3ccccc3)cc2)c1 the results were SARS PLP yeast -5.7%, MARV entry inh -4.0%, NS1 function inh 22.0%, Cruzain inh noDet inconclusive, Cruzain Triton -0.4%, Lassa entry inh -1.5% and RE007 growth inh -1.6%.
For COC(=O)CN1C(=O)[C@H]2[C@@H](C3CC3)N3C(=O)CN(Cc4ccccn4)C(=O)[C@@]3(Cc3ccccc3)[C@H]2C1=O the results were StopGo reporter -8.9%, SARS PLP yeast -4.4%, NS1 function inh -12.9% and RE007 growth inh 2.4%.
For CN(NC(=O)c1ccccc1F)c1ccc([N+](=O)[O-])cn1 the results were StopGo reporter -1.4%, SARS PLP yeast -0.4%, MARV entry inh 25.7%[46.1 µM], NS1 function inh -2.0%, Lassa entry inh -0.7% and RE007 growth inh -1.8%.
Cc1cc(NC(=O)CSc2nc(=O)n3cccc(C)c3n2)no1 was read as StopGo reporter -8.4%, MARV entry inh -14.9%[46.1 µM], Lassa entry inh 13.3% and RE007 growth inh -12.2%.
For COc1cc(CCC(=O)OCC(=O)NCc2ccc(Cl)cc2)cc(OC)c1OC the results were StopGo reporter -11.0%, SARS PLP yeast -0.2%, MARV entry inh -9.9%[46.1 µM], NS1 function inh -5.4%, Lassa entry inh 12.6% and RE007 growth inh -2.9%.
`COc1ccc(/C=C2\CCCc3c2nc2ccc(C)cc2c3C(=O)O)cc1O` gave StopGo reporter 8.0%, SARS PLP yeast -1.6%, MARV entry inh 1.9%[46.1 µM], NS1 function inh 4.5%, Lassa entry inh -9.5% and RE007 growth inh -4.3%.
For CC1(C(=O)NC23CC4CC(CC(C4)C2)C3)CC1(Cl)Cl (stereo not given) the results were StopGo reporter 7.3%, SARS PLP yeast 4.3%, MARV entry inh -5.9%, NS1 function inh -2.8%, Cruzain inh noDet 12.2%, Cruzain Triton 5.9%, Lassa entry inh -42.3%[14.3 µM] and RE007 growth inh 4.0%.
`O=C(N1CCN(c2ccccc2)CC1)C(F)(F)C(F)(F)F` gave StopGo reporter -2.7%, SARS PLP yeast 6.0%, MARV entry inh inconclusive, NS1 function inh -3.5%, Cruzain inh noDet -11.6%, Cruzain Triton 3.9%, Lassa entry inh -5.8% and RE007 growth inh -7.5%.
For Cc1cc(C(=O)CSc2nn(-c3ccccc3)c(=S)s2)c(C)n1Cc1ccco1 the results were StopGo reporter -11.0%, SARS PLP yeast 2.4%, MARV entry inh -27.3%, NS1 function inh inconclusive, Cruzain inh noDet 25.1µM*, Cruzain Triton -3.1%, Lassa entry inh -22.4% and RE007 growth inh 5.4%.
O=C(CN1C(=O)COc2ccc(S(=O)(=O)N3CCOCC3)cc21)NCc1ccc(Cl)cc1 was read as StopGo reporter -0.9%, Cruzain inh noDet -0.2%, Cruzain Triton -2.6% and Lassa entry inh 15.2%[46.1 µM].
For CC(=O)c1ccc2c(c1)c1ccccc1n2CC(C)C the results were StopGo reporter -27.7%, SARS PLP yeast -29.2%, MARV entry inh inconclusive, NS1 function inh 0.4%, Cruzain inh noDet 1.7%, Cruzain Triton -8.8%, Lassa entry inh inconclusive and RE007 growth inh -17.4%.
C1=C(c2ccccc2)Nc2nnnn2C1 was read as StopGo reporter -1.2%, SARS PLP yeast 7.3%, MARV entry inh 2.9%&2.9%, NS1 function inh -12.1%, Cruzain inh noDet 3.9%, Cruzain Triton 6.1%, Lassa entry inh 6.3% and RE007 growth inh 14.4%.
CCOc1ccc(NC(=O)CCc2c(C)nc3c(-c4ccccc4)c(C)nn3c2C)cc1 was read as StopGo reporter 6.5%, MARV entry inh 4.6%[46.1 µM], Cruzain inh noDet -8.5%, Cruzain Triton 1.4% and Lassa entry inh 9.0%[46.1 µM].
`O=C(CN1CCOCC1)Nc1nc(-c2ccc(Cl)cc2)cs1` gave StopGo reporter inconclusive, SARS PLP yeast -0.3%, MARV entry inh inconclusive, NS1 function inh -7.2%, Lassa entry inh 7.08µM* and RE007 growth inh 10.7%.
For Fc1ccc(CNn2cnnc2SCc2ccc(F)cc2)cc1 the results were StopGo reporter -22.6%, SARS PLP yeast -13.8%, MARV entry inh 9.0%, NS1 function inh 3.2%, Cruzain inh noDet 3.1%, Cruzain Triton -3.4%, Lassa entry inh -15.3% and RE007 growth inh -1.7%.
N/C(=N\OC(=O)c1ccccc1[N+](=O)[O-])c1ccccn1 was read as StopGo reporter -57.7%, SARS PLP yeast -14.3%, MARV entry inh inconclusive, Lassa entry inh inconclusive and RE007 growth inh -5.9%.
Screening Clc1cccc(Cl)c1CSc1nnc([C@@H]2CCCN2)o1 returned StopGo reporter -0.4%, SARS PLP yeast 1.1%, MARV entry inh 10.9%[46.1 µM], NS1 function inh 6.0%, Lassa entry inh 6.9%[46.1 µM] and RE007 growth inh -20.2%.
For CCCC(=O)Nc1ccc(Br)c(Cl)c1 the results were StopGo reporter -9.8%, SARS PLP yeast -27.2%, MARV entry inh 4.8%, NS1 function inh -73.3%, Cruzain inh noDet 2.5%, Cruzain Triton -2.3%, Lassa entry inh -4.0% and RE007 growth inh -25.8%.
Screening COc1ccc(C(=O)NNC2CC(=O)N(Cc3ccc(Cl)cc3)C2=O)cc1OC (stereo not given) returned StopGo reporter -6.2%, SARS PLP yeast inconclusive, MARV entry inh 11.9%, NS1 function inh 5.3%, Cruzain inh noDet 5.1%, Cruzain Triton -1.1%, Lassa entry inh -0.4% and RE007 growth inh 0.4%.
For COc1cccc(NC(=O)Nc2cc(C(=O)O)ccc2N2CC3CC(C2)c2cccc(=O)n2C3)c1 (stereo not given) the results were StopGo reporter -0.2%, SARS PLP yeast -4.2%, NS1 function inh 17.3% and RE007 growth inh 0.3%.
Screening CCc1c(C)nc2ncnn2c1N1CCC(C(=O)Nc2ccccc2)CC1 returned StopGo reporter inconclusive, SARS PLP yeast -4.8%, MARV entry inh -5.6%, NS1 function inh -5.9%, Cruzain inh noDet -4.8%, Cruzain Triton 1.1%, Lassa entry inh 0.9% and RE007 growth inh -2.7%.
For CC(=O)N1CCN(C(=O)c2ccc(OC3CCN(Cc4ccccn4)CC3)cc2)CC1 the results were StopGo reporter -1.5%, SARS PLP yeast 3.0%, MARV entry inh -5.8%[46.1 µM], NS1 function inh 5.9%, Lassa entry inh -1.1% and RE007 growth inh -4.7%.
`Cc1ccc(S(=O)(=O)N(Cc2nc(-c3cccc(C)c3)no2)C2CCCCC2)cc1` gave StopGo reporter 25.6%, MARV entry inh 13.7%[46.1 µM], Cruzain inh noDet -28.6%, Cruzain Triton -4.7% and Lassa entry inh 25.4%[46.1 µM].
Screening Cc1nc2ccc(Cl)cc2c(-c2ccccc2F)c1CC(=O)O returned StopGo reporter -22.0%, SARS PLP yeast inconclusive, MARV entry inh 17.4%, NS1 function inh 10.9%, Cruzain inh noDet 2.9%, Cruzain Triton 5.6%, Lassa entry inh 0.3% and RE007 growth inh -15.4%.
O=C(Cc1cccc2ccccc12)Nc1ccc2c(c1)C(=O)NC2=O was read as StopGo reporter -0.4%, SARS PLP yeast -0.2%, MARV entry inh 2.6%[46.1 µM], NS1 function inh 1.8%, Lassa entry inh -1.1% and RE007 growth inh -1.5%.
For C=CCN(c1ccc(C(N)=O)cc1)S(C)(=O)=O the results were StopGo reporter 4.1%, SARS PLP yeast 1.4%, MARV entry inh 19.3%, NS1 function inh 3.0%, Cruzain inh noDet 3.8%, Cruzain Triton 1.9%, Lassa entry inh 9.9% and RE007 growth inh -8.5%.
Cc1ccc2nc(-c3ccncc3)cc(C(=O)NCc3ccccc3F)c2c1 was read as StopGo reporter 5.6%, SARS PLP yeast 0.8%, NS1 function inh -13.8% and RE007 growth inh -4.7%.
For O=C(c1ccccc1)c1ccc[nH]1 the results were StopGo reporter 8.9%, MARV entry inh -3.3%[46.1 µM], Lassa entry inh 1.6%[46.1 µM] and RE007 growth inh 12.0%.
Screening COc1nnc(-c2ccc(C)c(S(=O)(=O)NC(C)C)c2)c2ccccc12 returned StopGo reporter 12.7%, SARS PLP yeast 1.5%, NS1 function inh -0.2% and RE007 growth inh 0.6%.
Screening C=CCN=C(NC#N)SCc1ccccc1Cl returned StopGo reporter -14.7%, SARS PLP yeast -2.8%, MARV entry inh 2.0%, NS1 function inh -13.1%, Cruzain inh noDet -0.9%, Cruzain Triton -3.2%, Lassa entry inh 3.5% and RE007 growth inh 0.5%.
`CCN(C(=O)c1nn(-c2ccc(C)cc2)c(=O)c2c1c1ccccc1n2C)c1ccc(F)cc1` gave StopGo reporter -11.0%, MARV entry inh -1.6%[46.1 µM], Cruzain inh noDet -7.9%, Cruzain Triton -2.2% and Lassa entry inh 28.8%[46.1 µM].
For Cn1c(Cn2c(=O)sc3ccccc32)nnc1SCC(N)=O the results were StopGo reporter 3.6%, SARS PLP yeast 8.2%, NS1 function inh -2.6%, Cruzain inh noDet 22.4%, Cruzain Triton 0.1% and RE007 growth inh 4.4%.
O=C(c1ccsc1)N1CCCC(N2CCN(c3cccc(C(F)(F)F)c3)CC2)C1 (stereo not given) was read as StopGo reporter 0.0%, SARS PLP yeast -2.5%, MARV entry inh inconclusive, NS1 function inh -11.1%, Lassa entry inh -21.9% and RE007 growth inh 1.4%.
For CC(=O)c1sc(NC(=O)CS(=O)(=O)c2ccccc2)nc1-c1ccccc1 the results were StopGo reporter 48.8%[activator], SARS PLP yeast -1.8%, MARV entry inh -11.3%, Lassa entry inh inconclusive and RE007 growth inh 21.9%.
`COc1cccc(OCc2ccc(C(=O)NCC3CCCO3)cc2)c1` (stereo not given) gave StopGo reporter 2.7%, SARS PLP yeast -8.2%, MARV entry inh inconclusive, NS1 function inh -15.9%, Cruzain inh noDet 1.3%, Cruzain Triton -3.3%, Lassa entry inh -4.1% and RE007 growth inh 13.3%.
